Rhodamine autofl: compound fluoresces in the rhodamine spectral region; Rhodamine-region fluorescence, 547/598 nm, Tris buffer; active compounds read high; max dye-equivalent concentration, M; 0.05% of 59,000 active; in the data active means max dye-equivalent concentration above about 11 nM; inconclusive means between about 1.1 nM and that limit
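qHTS spectral profiling of compounds without any target or enzyme present, in pH 8.0 Tris buffer; plates were read after a 15-minute room-temperature incubation using the rhodamine-region filter set.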
Tau filament bind: binds recombinant human tau filaments; Potency, µM (top dose mostly 57.1 µM), for the others: at the top dose activity change, negative = inhibition; 2% of 71,000 active; AID 596; P10636; recombinant tau filaments, thioflavin S fluorescence, 15 h; filaments grown with octadecylsulfate alongside compound;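 further: potency means the concentration at half of the fitted maximal effect; on the % scale 0 is the no-effect control and ±100 the full control effect; actives lower thioflavin S fluorescence by blocking filaments or displacing dye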
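ThS-based fibril read: tau 1 uM final, inducer ODS 30 uM final, 37 C for 15 h, ex 450/em 510 nm.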
ERK AVP inh: vasopressin-driven ERK pathway inhibition; HEK293-V1b, vasopressin-stimulated pERK AlphaScreen; 0.99% of 72,000 active; AID 995; Potency, µM (top dose mostly 57.5 µM), for the others: top-dose activity, negative = inhibition, usual class: inhibitors; further: potency means the concentration at half of the fitted maximal effect; on the % scale 0 is the no-effect control and ±100 the full control effect; nearly all actives have a fitted effect of over 55% in size
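Phosphorylated ERK1/2 detected via AlphaScreen bead proximity in lysates of V1b-expressing HEK293 cells given 25 nM vasopressin for 5 min after 30 min compound exposure (37 °C). AC50 from Hill equation; basal DMSO 0%, vasopressin 100%.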
TexasRed autofl: compounds fluorescent in Texas Red spectral region; 0.06% of 59,000 active; Compound fluorescence, Texas Red channel, 547/618 nm; active compounds read high; max dye-equivalent concentration, M; in the data active means max dye-equivalent concentration above about 10 nM; inconclusive means between about 1.1 nM and that limit
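Texas Red-region profiling: compounds in 100 mM Tris pH 8.0 were read at 547/618 nm after 15 min at room temperature. Intensities were normalized against a six-point Texas Red standard series to give dye-equivalent concentration.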
15-hLO inh: blocks human 15-lipoxygenase activity; Potency, µM (highest dose often 57.1 µM), inactives show at the top dose activity change, negative = inhibition, usual class: inhibitors; P16050; purified 15hLO-1, xylenol orange hydroperoxide absorbance; 1.4% of 74,000 active; further: potency means the concentration at half of the fitted maximal effect; on the % scale 0 is the no-effect control and ±100 the full control effect; nearly all actives have a fitted effect of over 55% in size
Target sequence (P16050 whole entry, looked up): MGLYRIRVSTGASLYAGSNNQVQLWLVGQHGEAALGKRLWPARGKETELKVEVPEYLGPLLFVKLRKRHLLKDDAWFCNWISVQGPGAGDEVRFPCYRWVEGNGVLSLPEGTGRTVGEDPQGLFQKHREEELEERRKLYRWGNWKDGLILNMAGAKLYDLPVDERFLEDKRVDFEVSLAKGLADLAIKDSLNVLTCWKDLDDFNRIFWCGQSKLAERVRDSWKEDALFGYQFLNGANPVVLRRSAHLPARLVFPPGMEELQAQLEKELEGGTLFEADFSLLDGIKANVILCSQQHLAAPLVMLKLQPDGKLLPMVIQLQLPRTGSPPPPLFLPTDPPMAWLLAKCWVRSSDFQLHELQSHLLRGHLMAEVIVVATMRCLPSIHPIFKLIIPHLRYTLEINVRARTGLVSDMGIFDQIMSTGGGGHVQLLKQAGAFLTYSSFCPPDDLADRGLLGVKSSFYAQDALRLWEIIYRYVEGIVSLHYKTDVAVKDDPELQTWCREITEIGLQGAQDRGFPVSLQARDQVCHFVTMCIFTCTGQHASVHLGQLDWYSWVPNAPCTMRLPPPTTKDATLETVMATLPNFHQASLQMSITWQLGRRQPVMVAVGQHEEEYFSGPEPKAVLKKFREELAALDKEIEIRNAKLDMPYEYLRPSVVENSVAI
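Purified human 15hLO-1 (40 nM) in 25 mM Hepes pH 7.5, 0.01% Triton X-100, preincubated 15 min RT with compound, then 50 uM arachidonic acid for 6 min. Hydroperoxide read by ferrous/xylenol orange, 30 min; 573/405 nm absorbance ratio gave progress.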
HBB splice mod: alters splicing of the hemoglobin beta chain | HBB splicing reporter cell assay, activation; EGFP reporter with mutant IVS2-654 intron; response scale: normalised to 500 nM splice-correcting PNA | Potency, µM (doses to about 46.1 µM), without a hit: top-dose activation, usual class: activators | 0.06% of 65,000 active | AID 925; further: potency means the concentration at half of the fitted maximal effect; 0% is about no effect
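Compounds were applied for 2 days to HeLa EGFP-654 cells, 500/well in Optimem with 2% FCS. The reporter's EGFP is disrupted by mis-splicing of beta-globin intron IVS2-654. Readout: summed well GFP fluorescence from 488 nm laser scanning; reference was 500 nM antisense […] 654 PNA.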
CRE Fsk mod: modulators of forskolin-stimulated CRE signaling in CHO cells; CHO CRE-bla reporter (cAMP response element driving beta-lactamase), forskolin EC10, beta-lactamase ratio; Potency, µM (top dose mostly 38.2 µM), without a hit: top-dose activity change, negative = inhibition, actives largely listed as activators; 2.5% of 71,000 active; AID 662; active means well fitted activation curve with a large enough effect in the signal ratio, with a control signal flat, not every such curve was filed as active; inconclusive means small, poorly fitted or top-dose-only effect, or effect the other way, or a change in a side signal; the % refers to the signal ratio; further: potency means the concentration at half of the fitted maximal effect; % of control where 0% means no effect
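qHTS titration format; CRE-bla CHO reporter; stimulus EC10 NKH 477, a water-soluble forskolin. Read: CCF4 460/530 nm ratio. Potency expressed as AC50 for activators or inhibitors.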
Pol III holo inh: DNA polymerase III holoenzyme inhibition. Potency, µM (highest dose often 57.1 µM), without a hit: at the top dose activity change, negative = inhibition. reconstituted DNA polymerase III holoenzyme replication, biochemical. 0.25% of 71,000 active; further: potency means the concentration at half of the fitted maximal effect; on the % scale 0 is the no-effect control and ±100 the full control effect
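Reconstituted *E. coli* holoenzyme (0.35 nM Pol III, 1 nM beta, 154 nM SSB, 2 nM primase) was preincubated with compound for 15 min at RT. Synthesis on 1.4 nM ssM13Gori ran 35 min, then was stopped with PicoGreen/EDTA and read as dsDNA fluorescence.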
Luciferase inh: blocks Photinus pyralis firefly luciferase activity. P08659. Potency, µM (top dose mostly 57.1 µM), without a hit: at the highest dose activity change, negative = inhibition, hits mostly inhibitors. purified firefly luciferase, luminescence, 8 min. AID 411. 2.2% of 72,000 active; further: potency means the concentration at half of the fitted maximal effect; on the % scale 0 is the no-effect control and ±100 the full control effect; nearly all actives have a fitted effect of over 40% in size
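Titration-based qHTS; buffer 50 mM imidazole pH 7.2, 50 mM KCl, 7 mM MgCl2, 10 uM ATP, 0.01% Tween 20, 0.05% BSA; luciferase/luciferin detector mix added after compound; 8 min, ambient; luminescence.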
* hit, by the source's call; i = inactive; ? = inconclusive; . = no result given; [ ] = remark or other dose. Unless noted, the call rests on the fitted dose curve; in most records, active means well fitted curve in the direction sought with a large enough effect; inconclusive means small, poorly fitted or top-dose-only effect, or another doubt; inactive means no such curve, though single readings can be large; an effect the other way counts as inactive or inconclusive. The list is partial; rates above refer to the full screens.

entry | molecule | Tau filament bind | HBB splice mod | TexasRed autofl | 15-hLO inh | Pol III holo inh | CRE Fsk mod | Luciferase inh | Rhodamine autofl | ERK AVP inh
1 | COc1ccc(S(=O)(=O)N2CCN(C(=O)[C@@H]3CCC(=O)N3C3OC(=O)c4ccccc43)CC2)cc1 (stereo partly drawn) | -5% | 0.2%[57.5 µM] | i | -2% | 5% | 9% | 3% | i | 12%
2 | O=C(CNC(=O)Cn1ccc2ccccc2c1=O)NCCCN1CCN(c2cccc(Cl)c2)CC1 | 73% | -1.5% | i | 3% | -4% | -5% | 1% | i | -11%
3 | O=C(Nc1ccccc1)C1=C(O)CC(c2ccoc2)CC1=Nc1ccccc1 (stereo not drawn) | 30%[11.4 µM] | -0.2%[0.0738 µM] | . | 4µM* | 1%[11.4 µM] | ? | -10% | . | -3%
4 | CCOC(=O)c1c(C)c(C)n2c1NC(=O)C2 | 1%[11.4 µM] | 0.0%[9.22 µM] | i | 9%[11.4 µM] | -6%[11.4 µM] | -1%[7.6 µM] | 1%[11.4 µM] | i | 1%[11.5 µM]
5 | CCC(C)C(NC(=O)OC(C)(C)C)C(=O)NC(CC(C)C)C(N)=O (stereo not drawn) | -7% | -2.9% | ? | -8% | -4% | 1% | -29% | i | 23%
6 | CCS(=O)(=O)Nc1ccc(-c2ccc(NS(=O)(=O)CC)c(OC)c2)cc1OC | -30% | 1.8% | . | -7% | -6% | ? | 0% | . | -8%
7 | COc1ccc(S(=O)(=O)Nc2ccc(S(=O)(=O)N3CCCCC3)cc2)cc1OC | 7% | -0.5%[0.369 µM] | ? | 7% | 3% | -24% | 1% | i | -18%
8 | Cc1ccc(CC2CC(=O)N(Cc3ccco3)C2=O)cc1 (stereo not drawn) | 6% | -1.7% | . | -12% | 3% | -2% | 2% | . | ?

(further entries)
entry | molecule | Tau filament bind | HBB splice mod | TexasRed autofl | 15-hLO inh | Pol III holo inh | CRE Fsk mod | Luciferase inh | Rhodamine autofl | ERK AVP inh
9 | COc1ccc(NC(=O)Nc2c(C)n(C)n(-c3ccccc3)c2=O)cc1 | 20% | -0.9% | . | -5% | -4% | 0% | -1% | . | 33%
10 | COc1ccccc1CNc1nc2nc3c(c(=O)n2[nH]1)CCC3 | 3% | 6.9%[0.369 µM] | i | 6% | -7% | 12% | 1% | i | -5%
11 | CCOC(=O)CCCNC(=O)COC(=O)CCC(=O)c1ccc(F)cc1 | 1% | -1.6% | i | -2% | -3% | -11% | 1% | i | 3%
12 | CC(NC(=O)OC(C)(C)C)C(=O)N1CCCC1C(=O)NC(Cc1ccccc1)C(N)=O (stereo not drawn) | -9% | -0.6% | i | 9% | 2% | 2% | 3% | i | 13%
13 | O=c1c2ccccc2n(Cc2ccc(Cl)cc2)c(=O)n1Cc1ccco1 | 174% | 0.2% | i | -12% | -2% | ? | 2% | i | -12%
14 | COC(=O)c1ccc2c(c1)N(Cc1nc(-c3ccc(Cl)cc3)oc1C)C(=O)C1CCCN21 (stereo not drawn) | 36% | 0.4% | ? | ? | -4% | ? | 0% | i | -16%
15 | COc1ccc(-c2ccc(=O)[nH]n2)cc1 | 1% | -1.3%[57.5 µM] | i | -1% | -6% | ? | 2% | i | -30%

Screens: PubChem, National Center for Advancing Translational Sciences (NCATS)
